Assay outcomes (PubChem BioAssay)
Ba CapD inh: Bacillus anthracis CapD inhibitors, primary screen, biochemical, fluorescence intensity. CapD gamma-glutamyltranspeptidase (Bacillus anthracis Ames Ancestor). purified CapD enzyme, fluorescence intensity read-out; hits give low values; some hits fall short of the stated cut. z-score (concentration not given with the values). actives 0.23% (n = 140,000);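 active = z-score under -4 in either of two replicates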;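 also: stock transfer was 100 nL into about 40 µL; score is relative to mean and spread of the plate; one replicate is shown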
AID504770: growth inhibition of E. coli YBA685, primary screen, V. cholerae RctB inhibitors; E. coli YBA685 rctB-dependent plasmid, OD600 growth, 3 h; hits give low values; z-score (test concentration not listed); actives 0.27% (n = 130,000);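 active = z-score under -2 on both plates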;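 also: wells of about 30 µL received 100 nL stock; score is relative to mean and SD of the test wells; the first replicate is given; strong numbers were not always called active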
Starred values were filed as active, the others as inactive.

`COc1ccc(N2CCN(C(=O)C3(S(=O)(=O)c4ccc(C)cc4)CC3)CC2)cc1` gave Ba CapD inh 0.215 and AID504770 -0.6.
Screening CC1=NC(C(F)(F)F)(C(F)(F)F)C(C#N)=C(C)N1 returned Ba CapD inh -0.095 and AID504770 1.6.
N/C(=N\NC(=O)Nc1ccccc1)c1ccccn1 was read as Ba CapD inh -0.31.
`C(=N\c1sc2c(c1-c1nc3ccccc3s1)CCCC2)/c1ccco1` gave AID504770 0.05.
`COc1ccc(Br)cc1/C=C/C(=O)Nc1ccc(F)cc1F` gave Ba CapD inh 0.69 and AID504770 1.15.
`CCOc1ccccc1Nc1ncnc2c1cnn2-c1ccccc1` gave Ba CapD inh -0.095 and AID504770 1.45.
`O=C(NC1=NCCCN1)c1c(Cl)cccc1Cl` gave Ba CapD inh 0.15 and AID504770 -0.6.
For Cc1cccn2c(=O)c(/C=N/NC(N)=O)c(NCc3ccco3)nc12 the results were AID504770 0.95.
Cc1oc2cc(OC(C)C)ccc2c(=O)c1Oc1ccccc1 was read as Ba CapD inh 0.54 and AID504770 -0.8.
Cn1cnc2c(oc3ccccc32)c1=O was read as AID504770 0.05.
For Cc1ccsc1C=Nc1ccccc1C(=O)c1ccccc1 the results were Ba CapD inh -1.44 and AID504770 -0.65.
Screening O=C(Nc1ccccc1Oc1ccc(Cl)cc1Cl)C(Cl)(Cl)Cl returned Ba CapD inh -0.375.

Continued (six carried over from the part before).
`O=C(NC1=NCCCN1)c1c(Cl)cccc1Cl` gave Ba CapD inh 0.15 and AID504770 -0.6.
For Cc1cccn2c(=O)c(/C=N/NC(N)=O)c(NCc3ccco3)nc12 the results were AID504770 0.95.
Cc1oc2cc(OC(C)C)ccc2c(=O)c1Oc1ccccc1 was read as Ba CapD inh 0.54 and AID504770 -0.8.
Cn1cnc2c(oc3ccccc32)c1=O was read as AID504770 0.05.
For Cc1ccsc1C=Nc1ccccc1C(=O)c1ccccc1 the results were Ba CapD inh -1.44 and AID504770 -0.65.
Screening O=C(Nc1ccccc1Oc1ccc(Cl)cc1Cl)C(Cl)(Cl)Cl returned Ba CapD inh -0.375.
`O=C1C2C3C=CC(O3)C2C(=O)N1c1cc([N+](=O)[O-])ccc1Cl` (stereo not given) gave Ba CapD inh -0.085.
Screening CC(=O)N(/C=C1\Sc2ccccc2C1=O)c1ccc(C)c(C)c1 returned Ba CapD inh -0.85 and AID504770 0.2.
Screening CCc1ccc2c(c1)c1n[nH]c(=S)nc1n2CC returned Ba CapD inh -0.1 and AID504770 0.55.
`CC1=C(C(=O)OC(C)(C)C)C(c2ccco2)C(C#N)=C(N)O1` (stereo not given) gave Ba CapD inh 0.42.
Screening COC(=O)c1cc(NCc2ccccc2)ccc1N1CCOCC1 returned AID504770 -0.3.
For Cc1cc2ncn(CCC3CCCCC3)c2cc1C the results were Ba CapD inh 0.835 and AID504770 -0.4.
`O=C(Oc1cccnc1I)c1ccc(Cl)cc1Cl` gave Ba CapD inh 0.52.
`COc1ccc(/C(O)=C2\C(=O)C(=O)N(CCCN(C)C)C2c2cc(OC)c(OC)c(OC)c2)cc1Cl` (stereo not given) gave Ba CapD inh 0.42 and AID504770 -0.35.
`Cc1ccc(Cn2cc3c(n2)-c2c(oc(C(=O)Nc4cc(C)ccc4C)c2C)CC3)cc1` gave Ba CapD inh 1.07 and AID504770 0.
`O=c1c2ccccc2nc2n1C(CSCc1ccc(Cl)cc1)CS2` (stereo not given) gave Ba CapD inh 0.055.
Screening CCOc1cccc2cc(-c3nc4ccccc4s3)c(=O)oc12 returned Ba CapD inh 0.315 and AID504770 -0.35.
For CCCCn1c(CCCNC(=O)C(C)(C)C)nc2ccccc21 the results were Ba CapD inh -0.13 and AID504770 1.5.
For CCCCn1c(C)c(C)c(S(=O)(=O)c2ccccc2)c1N the results were Ba CapD inh 0.855 and AID504770 0.4.
Screening CCOC(=O)Cn1c(=O)n(CC(=O)OCC)c2ccccc21 returned Ba CapD inh -0.39 and AID504770 -0.2.
`O=C(NCc1ccc2c(c1)OCO2)c1ccsc1` gave Ba CapD inh -1.24 and AID504770 -1.3.
`CC(NC(=O)NC1CCCCC1)C(c1ccccc1)N1CCOCC1` (stereo not given) gave AID504770 -0.85.
Cc1ccccc1C(=O)c1cccn1CC(=O)NCCCN1CCOCC1 was read as Ba CapD inh -0.19 and AID504770 0.15.
`CCOC(=O)Cn1c(=O)c2cnc3c(c(C)nn3C)c2n1C` gave Ba CapD inh 17.8 and AID504770 0.85.
For O=C(NC1CCCCC1)N1CCCCCCC1 the results were Ba CapD inh 2.54 and AID504770 2.15.
For Cc1csc(=O)n1CCC(=O)OCC(=O)NC1CCS(=O)(=O)C1 (stereo not given) the results were AID504770 -0.6.
For C=CCn1c2ccccc2c2nn(C)c(=S)nc21 the results were Ba CapD inh 0.07 and AID504770 0.9.
For CCSc1nnc(C2CCCN(C(=O)NCc3ccccc3)C2)n1C (stereo not given) the results were AID504770 -0.65.
Screening Cc1cc(N)n(-c2ncnc3sc4c(c23)CCCC4)n1 returned Ba CapD inh -0.69 and AID504770 -0.5.
For O=[N+]([O-])c1cc(Cl)c(-n2cccc2)cc1Sc1nc(-c2ccccc2)c(-c2ccccc2)o1 the results were Ba CapD inh -0.21.

Molecules above that have a cyano group (two):
Screening CC1=NC(C(F)(F)F)(C(F)(F)F)C(C#N)=C(C)N1 returned Ba CapD inh -0.095 and AID504770 1.6.
`CC1=C(C(=O)OC(C)(C)C)C(c2ccco2)C(C#N)=C(N)O1` (stereo not given) gave Ba CapD inh 0.42.

The list continues.
Screening Cc1ccc(-c2cc(C(=O)N3C(C)CCCC3C)[nH]n2)cc1 (stereo not given) returned Ba CapD inh -3.21 and AID504770 0.
Cc1nc2ccc(NC(=O)c3ccc(Cc4ccccc4)cc3)cc2s1 was read as Ba CapD inh 0.17.
For Cc1ccc(Nc2ccc(NCc3ccccc3)nn2)cc1C the results were Ba CapD inh 0.04 and AID504770 -1.15.
O=C(/C=C/c1ccc(Cl)cc1)OCC(=O)c1ccccc1 was read as Ba CapD inh 0.02 and AID504770 -0.3.
Screening C=CCNC(=O)c1c(N)n(Cc2ccc(OC)cc2)c2nc3ccccc3nc12 returned AID504770 0.75.
For COc1ccc(Cl)cc1N1C(=O)C2C(c3ccc(C)cc3)OC3(C(=O)c4ccccc4C3=O)C2C1=O (stereo not given) the results were Ba CapD inh -0.135.
Screening C=CCn1c(=O)c2ccc(C(=O)NCc3ccccc3)cc2n(CC(=O)n2nc(N)cc2C)c1=O returned Ba CapD inh -0.04 and AID504770 -0.5.
`CCOC(=O)C1=C(N)OC2=C(C(=O)CCC2)C1c1cccc(Br)c1` (stereo not given) gave Ba CapD inh -0.135.
COc1cccc(C(=O)N(CCCN2C(=O)c3cccc4cccc(c34)C2=O)c2ccccc2)c1 was read as Ba CapD inh 3.19.
Screening CC(=O)Nc1cccc(OCCCNS(=O)(=O)c2ccc(F)cc2)c1 returned Ba CapD inh -0.075 and AID504770 -1.85.
C=CCn1c(=O)[nH]c2nc3cc(N=CN(C)C)ccc3nc2c1=O was read as Ba CapD inh -0.88 and AID504770 1.5.
Cc1noc(C)c1NC(=O)NCc1csc(-c2cccs2)n1 was read as Ba CapD inh 36.3 and AID504770 -0.45.
Cc1ccc2c(c1)C(c1ccccc1)CC(C)N2S(=O)(=O)c1cccc(Cl)c1 (stereo not given) was read as Ba CapD inh -0.525 and AID504770 -0.6.
For O=C(Nc1nccs1)c1cccc(S(=O)(=O)N2CCc3ccccc32)c1 the results were AID504770 -0.25.
For CCOc1cc(/C=N/n2c(C)csc2=NC(C)C)ccc1O the results were AID504770 -0.6.
`Cc1ccc(F)c(NC(=O)C2CCCCC2C(=O)O)c1` (stereo not given) gave AID504770 -0.75.
`CCOc1ccccc1C1C(C(=O)OC)=C(N)OC2=C1C(=O)CC(C)(C)C2` (stereo not given) gave Ba CapD inh 0.725.
For O=C(Nc1nc(-c2ccccc2)nc2c1C(=O)CCC2)c1ccccc1 the results were Ba CapD inh 0.26 and AID504770 2.95.
For Cc1ccc(S(=O)(=O)NCCC#N)cc1 the results were AID504770 -0.45.
Screening Cc1cc(Oc2ccc3c(c2)OCO3)nc2ccccc12 returned AID504770 -0.55.
Screening O=C(O)C1CN(C(c2ccccc2)c2ccccc2)C1 returned Ba CapD inh -0.205 and AID504770 0.55.
For CCOc1ccc(CC(=O)NCc2cn(C)nc2C)cc1OCC the results were Ba CapD inh 0.64 and AID504770 -0.3.
Screening OCC#CCSc1nc2ccccc2n1Cc1ccccc1 returned Ba CapD inh 0.33 and AID504770 1.2.
`COC(=O)c1cc(OC)c(OC)cc1-n1c(C)ccc1C` gave Ba CapD inh 0.71.
`O=C(NCCc1c[nH]c2ccccc12)Nc1ccccc1` gave Ba CapD inh 1.52 and AID504770 1.8.
For COc1ccc(NC(=O)c2sc3ncn(CC(=O)Nc4ccc(C)c(Cl)c4)c(=O)c3c2C)c(OC)c1 the results were Ba CapD inh -1.69.
Cc1ccc2cc(CCNC(=O)c3ccc(Cl)cc3Cl)c(=O)[nH]c2c1 was read as Ba CapD inh 1.17 and AID504770 1.95.
`CCOc1ccc2nc(NCCCNS(=O)(=O)c3ccccc3)c(C#N)cc2c1` gave AID504770 0.75.
For CCC1(C)CC2=C(CO1)Cc1c(nc(SCC(=O)Nc3ccc(C)cc3)n(-c3ccccc3)c1=O)N2 (stereo not given) the results were Ba CapD inh 0.12 and AID504770 0.55.
For O=S(=O)(Cc1nc2ccccc2s1)c1ccccc1 the results were Ba CapD inh -0.5 and AID504770 -0.2.
COc1ccc(C(OCC(O)CN2CCC(C(N)=O)CC2)c2ccc(OC)cc2)cc1 (stereo not given) was read as AID504770 -0.05.
For c1csc(C2CC3(CS2)Nc2ccccc2S3)c1 (stereo not given) the results were Ba CapD inh 0.935 and AID504770 2.95.
For CCOc1ccc2nc(N3CCC(C(=O)N4CCCC4)CC3)sc2c1 the results were Ba CapD inh 0.485 and AID504770 -0.95.
`Cc1cc(NC(=O)C(C)C)nc2c1c(=O)oc1ccccc12` gave Ba CapD inh 0.595 and AID504770 -0.1.
CN1CCCN(C(=O)C2CCCCN2S(=O)(=O)c2ccccc2)c2nc3ccccc3nc21 (stereo not given) was read as AID504770 -0.2.
Cc1cc(C)c2c(c1)/C(=N\OCC(=O)N1CCCc3ccccc31)C(=O)N2 was read as AID504770 -0.4.
`O=C(NCc1ccccc1)C(c1ccco1)N(C(=O)c1csnn1)c1ccccc1` (stereo not given) gave AID504770 0.15.
`CCOC(=O)C1=C(N)n2c(s/c(=C\c3ccc(Br)cc3)c2=O)=C(C(=O)OCC)C1c1ccc(Br)cc1` (stereo not given) gave Ba CapD inh 0.02.
`COc1cc([C@@H]2[C@@H](C(=O)c3ccccc3)N3c4ccccc4C=C[C@@H]3C2(C#N)C#N)cc(OC)c1OC` gave Ba CapD inh 1.46.
`CC1(C)Cc2ccccc2C(C(Cc2ccccc2)C(N)=O)=N1` (stereo not given) gave Ba CapD inh -0.105 and AID504770 -0.6.
Oc1ccccc1C1OCC(C2CC=CCC2)CO1 (stereo not given) was read as AID504770 1.6.
COc1ccc(N2C(=O)/C(=C\c3ccco3)N=C2SCC(=O)c2cc(C)n(C)c2C)cc1Cl was read as AID504770 -0.35.
For O=C(O)CCn1c(SCCOc2ccccc2)nc2ccccc21 the results were Ba CapD inh -0.69 and AID504770 1.35.
COc1ccccc1-n1c(CNC(=O)c2ccc(C)c([N+](=O)[O-])c2)nnc1SCC(=O)Nc1nnc(C)s1 was read as Ba CapD inh 0.255.
`CCOC(=O)N1CCC(NC(=O)c2sc3ccccc3c2Cl)CC1` gave Ba CapD inh -0.47 and AID504770 -1.05.
Screening c1csc(CNc2nc(-c3cccs3)nc3ccccc23)c1 returned AID504770 0.65.
Screening COc1cc(OC)cc(N2CCN(S(=O)(=O)c3ccccc3Cl)CC2)c1 returned Ba CapD inh -0.485.
CCC(CC)C(=O)Nc1cccc(C(=O)N2CCCC2)c1 was read as Ba CapD inh 0.465 and AID504770 0.65.
For N#CCSc1ccccc1NC(=O)CN1C(=O)C2CC=CCC2C1=O (stereo not given) the results were AID504770 -0.35.
For Cc1cc(NS(=O)(=O)c2ccc(NC(=O)Nc3ccc(OC(F)(F)F)cc3)cc2)no1 the results were Ba CapD inh 0.155.
For C#CCOc1c(Cl)cc(CNCC2CN(CC(C)C)CCO2)cc1OC (stereo not given) the results were AID504770 1.35.
Screening CCn1c(SCc2cc(=O)n3cc(C)ccc3n2)nc2ccccc21 returned AID504770 1.55.
CCc1cccc(NC(=O)c2cc3cc4ccc(OC)cc4nc3o2)c1 was read as Ba CapD inh 0.29 and AID504770 0.3.
For N#CC1=C(N)C(C#N)(C#N)[C@@H](c2ccccc2C(F)(F)F)[C@@H]2CCCC=C12 the results were Ba CapD inh 0.14.
For Cc1cc(C)cc(CC2CC(=O)N(CC(=O)O)C2=O)c1 (stereo not given) the results were Ba CapD inh 0.325 and AID504770 -0.5.
Cn1c2ccccc2c2c(C(=O)N3CCC4(CC3)OCCO4)cn(C3CCCC3)c(=O)c21 was read as Ba CapD inh 76 and AID504770 -0.65.
For CN(C)c1nn(C(=S)Nc2ccccc2)cc1-c1ccccc1 the results were Ba CapD inh 4.12 and AID504770 1.1.

Part of the list above in order of count of non-hydrogen atoms, smallest number first:
Screening CCn1c(SCc2cc(=O)n3cc(C)ccc3n2)nc2ccccc21 returned AID504770 1.55.
CCc1cccc(NC(=O)c2cc3cc4ccc(OC)cc4nc3o2)c1 was read as Ba CapD inh 0.29 and AID504770 0.3.
For Cc1cc(NS(=O)(=O)c2ccc(NC(=O)Nc3ccc(OC(F)(F)F)cc3)cc2)no1 the results were Ba CapD inh 0.155.
